Screens from PubChem.
Kir21 inh: inhibitors of mouse Kir2.1 inward-rectifier potassium channel | Inward rectifier potassium channel 2 (Mus musculus), P35561 | HEK293-Kir2.1, FluxOR thallium flux fluorescence; active compounds read low | B-score at 10 µM | 310,000 tested, 0.85% active | AID 1672, 2009;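 active = fluorescence ratio B-score at or below minus 3 SD of library scores, with starting-brightness B-score within 2 SD, cut at about -4.2 in these data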;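 note: channel flux triggered by added potassium and thallium sulfate stimulus; B-score of peak minus minimum fluorescence over baseline after thallium stimulus; more negative B-score means stronger Kir2.1 block with less thallium influx; some compounds called inactive have numbers as strong as hits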
Target sequence (P35561 whole entry, looked up): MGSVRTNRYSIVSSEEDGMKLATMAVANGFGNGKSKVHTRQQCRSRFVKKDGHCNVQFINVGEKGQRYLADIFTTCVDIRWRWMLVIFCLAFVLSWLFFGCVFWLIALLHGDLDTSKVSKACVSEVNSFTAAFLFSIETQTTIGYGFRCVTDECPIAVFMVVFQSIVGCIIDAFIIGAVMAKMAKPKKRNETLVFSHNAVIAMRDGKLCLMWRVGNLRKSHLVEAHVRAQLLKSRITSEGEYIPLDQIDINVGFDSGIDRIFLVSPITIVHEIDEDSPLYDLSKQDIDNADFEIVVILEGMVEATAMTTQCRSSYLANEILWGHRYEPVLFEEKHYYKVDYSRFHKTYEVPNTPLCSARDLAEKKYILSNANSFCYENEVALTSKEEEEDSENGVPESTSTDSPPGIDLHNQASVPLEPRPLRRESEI
* = called active by the depositor. Only part of the results is shown, and most or all hits are left out here.

Molecule	Kir21 inh
NCC(CC(=O)O)C1CCCCC1 (stereo unspecified)	-0.38
NNC(=O)c1ccc(Cl)cc1	1.1
CC(C)n1c(=O)c(C=Nc2ccc(Cl)cc2)c(O)n(Cc2ccco2)c1=O	0.58
O=C1CC(=O)N(c2cccc(Br)c2)C(=O)N1	-0.16
C[C@H]1O[C@@H](OC2CC[C@]3(C=O)[C@H]4CC[C@]5(C)[C@@H](C6=CC(=O)OC6)CC[C@]5(O)[C@@H]4CC[C@]3(O)C2)CC2OC(C)(C)OC21 (stereo partly specified)	0.01
CC(C)CCn1c(=O)c(C(=O)NCc2ccc3c(c2)OCO3)c(O)c2ccccc21	0.46
CCc1c(C)nc(N)nc1N1N=C1SC(C(C)=O)C(C)=O	-0.88
CCOP(=O)(OCC)C(NC(=O)NC)C(N)=O (stereo unspecified)	0.59
O=C(Nc1cccc2ccccc12)N1CCC2(CC1)OCCO2	-0.27
CN(C)CP(=O)(O)CN(C)C=O	0.02
C=COCCn1c(C)c(C(=O)OCC)c2cc(O)ccc21	-0.15
C/C(=N\Nc1ccccc1)c1c(O)n(C)c(=O)n(C)c1=O	1.9
O=C1CC(N2CCC(n3c(=O)[nH]c4ccccc43)CC2)C(=O)N1c1ccc(F)cc1 (stereo unspecified)	-2
O=C(CN1C(=O)CN=C(c2ccccc2)c2ccccc21)NCc1ccco1	1.4
CN1C(=O)N(C)C(=O)C2(Cc3c(ccc4ccccc34)N(C)C2)C1=O	0.02
O=C(O)Cn1cc(/C=C2\C(=O)NC(=O)N(c3ccc(Br)cc3)C2=O)c2ccccc21	-0.95
C=CCN1CC[C@@]2(C)c3cc(O)ccc3CC1[C@@H]2C	0.9
CN(C)C(=O)OCc1n(C)cc[n+]1C	-0.05
O=C(Cc1ccccc1)N1CCN(CC2CC3C=CC2C3)CC1 (stereo unspecified)	-1.5
O=c1[nH]c(=O)n(C2CCCCC2)c(O)c1C=Nc1ccc(N2CCOCC2)cc1	0.61

Arranged by molecular weight (highest first): part of the list above.
Molecule	Kir21 inh
C[C@H]1O[C@@H](OC2CC[C@]3(C=O)[C@H]4CC[C@]5(C)[C@@H](C6=CC(=O)OC6)CC[C@]5(O)[C@@H]4CC[C@]3(O)C2)CC2OC(C)(C)OC21 (stereo partly specified)	0.01
CC(C)CCn1c(=O)c(C(=O)NCc2ccc3c(c2)OCO3)c(O)c2ccccc21	0.46
O=c1[nH]c(=O)n(C2CCCCC2)c(O)c1C=Nc1ccc(N2CCOCC2)cc1	0.61
CC(C)n1c(=O)c(C=Nc2ccc(Cl)cc2)c(O)n(Cc2ccco2)c1=O	0.58
O=C(CN1C(=O)CN=C(c2ccccc2)c2ccccc21)NCc1ccco1	1.4
CN1C(=O)N(C)C(=O)C2(Cc3c(ccc4ccccc34)N(C)C2)C1=O	0.02
O=C(Nc1cccc2ccccc12)N1CCC2(CC1)OCCO2	-0.27
O=C(Cc1ccccc1)N1CCN(CC2CC3C=CC2C3)CC1 (stereo unspecified)	-1.5
CCc1c(C)nc(N)nc1N1N=C1SC(C(C)=O)C(C)=O	-0.88
C/C(=N\Nc1ccccc1)c1c(O)n(C)c(=O)n(C)c1=O	1.9
O=C1CC(=O)N(c2cccc(Br)c2)C(=O)N1	-0.16
CCOP(=O)(OCC)C(NC(=O)NC)C(N)=O (stereo unspecified)	0.59
C=CCN1CC[C@@]2(C)c3cc(O)ccc3CC1[C@@H]2C	0.9
CN(C)C(=O)OCc1n(C)cc[n+]1C	-0.05
CN(C)CP(=O)(O)CN(C)C=O	0.02
NCC(CC(=O)O)C1CCCCC1 (stereo unspecified)	-0.38
NNC(=O)c1ccc(Cl)cc1	1.1

Next section:
Molecule	Kir21 inh
O=C1NC(=O)N(c2cccc(Br)c2)C(=O)/C1=C/c1ccsc1	-1.9
CC(=O)c1ccc(-c2ccccc2)cc1	1.1
O=C(CCl)NCC1CCCO1 (stereo unspecified)	-0.33
S=C(c1ccc(Cl)cc1)N1CCOCC1	-0.88
O=C(Nc1ccc(F)cc1)c1c(O)c2c(n(Cc3ccccc3)c1=O)CCCC2	0
Cc1cccc(OP(N)(=O)Oc2cccc(C)c2)c1	0.06
CC12CN3CC(C)(CN(C1)P3(=O)Oc1ccccc1)C2=O (stereo unspecified)	1.8
COc1ccc(NC(=O)N2CCC3(CC2)OCCO3)c(OC)c1	1.1
Cc1cc(C=C2C(=O)N(C)C(=S)N(C)C2=O)c(C)n1C1CCCC1	0.02
CCOC(=O)c1c(C)n(CCOC)c2ccc(O)cc12	1.3
COc1ccc2c(c1)c(CCN)c(C)n2Cc1ccccc1	-4.1
Cc1cc2oc(=O)cc(-c3cc4ccccc4o3)c2cc1OC(=O)N(C)C	1.8
CC(C)CCC1(CN2CCCC2=O)C(=O)NC(=O)NC1=O	0.74
O=C(O)c1ccc(N=Cc2c(O)[nH]c(=O)[nH]c2=O)cc1	-0.04
Cc1cc(/C=C2/C(=O)NC(=O)N(c3ccccc3)C2=O)c(C)n1-c1ccc(F)cc1	0.08
C=Cn1ccnc1P(=S)(c1c(C)nn(-c2ccccc2)c1C)c1nccn1C=C	-1.7
CCOC(=O)C1(c2ccccc2)CCN(CC(=O)Nc2cccc3ccccc23)CC1	-0.59
O=c1[nH]c(=O)n(Cc2ccco2)c(O)c1/C=N/N1CCCCCC1	-0.48
